Screening data: PubChem BioAssay, National Center for Advancing Translational Sciences (NCATS)
HSD17B inhib: blocks hydroxysteroid 17-beta dehydrogenase activity; AID 893; Q99714; Potency, µM (series often up to 57.1 µM), inactives show top-dose activity change, negative = inhibition, hits mostly inhibitors; 75,000 tested, 7.6% active; recombinant HSD17B10, NADH fluorescence kinetic; many of its hits are not listed in these tables; active = well fitted inhibition curve with a large enough effect; inconclusive = small, poorly fitted or top-dose-only effect; inactive = no such curve, though single readings can be large or run the other way;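 also: the protocol describes HADH2 (HSD17B10) and not the HSD17B4 of the title; nearly all actives have a fitted effect of over 70% in size; most hits overshoot -100% by far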
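His-tagged E. coli-expressed HADH2 at 20 nM in 100 mM Tris-HCl pH 9.0 with 0.01 % Tween-20, preincubated 15 min with compound at room temperature. Reaction with 1 mM NAD+ and 90 uM beta-hydroxybutyryl coenzyme A; NADH fluorescence (360/450 nm) read kinetically over 4 min, last minus first point.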
Active calls of the source: *; ? = inconclusive; & = joins results of further samples; [ ] = another dose, or the depositor's remark. % is scaled to controls: 0 for no effect and ±100 for the full control effect; potency is read from the fitted curve at half-maximal effect. Only part of the results is shown, so the mix of outcomes need not match the whole.

SMILES	HSD17B inhib
CCOc1ccc2[nH]c(=O)c(C(c3nnnn3Cc3ccco3)N3CCC(C)CC3)cc2c1 (stereo not drawn)	31.6µM*
Cc1cccc(Cn2c(Sc3nc(C)cs3)nc3c2c(=O)[nH]c(=O)n3C)c1	4.2%
CCC1(C)OC(=O)N2CCc3c(C)[nH]c4c(C)ccc(c34)C21C (stereo not drawn)	-10.1%
CCOC(=O)N1CCC(N2CC34C=CC(O3)C(C(=O)Nc3ccc(C(C)C)cc3)C4C2=O)CC1 (stereo not drawn)	-0.5%
Nc1nc(SCC(=O)N2CCc3ccccc3C2)[nH]c(=O)c1-c1ccccc1	8.5%
Cc1cc(S(=O)(=O)NCc2ccco2)c(C)s1	-0.9%
CCOC(=O)N1CCN(C(=O)CCCn2c(=S)[nH]c3ccccc3c2=O)CC1	-2.6%
O=C(CN(Cc1ccc2c(c1)OCO2)C(=O)CNS(=O)(=O)c1ccccc1)NCC1CCCO1 (stereo not drawn)	6.1%
O=C(Oc1cccnc1)c1ccc(Cl)cc1	-5.0%
O=C(O)CCSc1nnc(-c2ccncc2)n1-c1ccccc1	-0.7%
COc1ccc(Oc2ncc3ncc(=O)n(Cc4cccc(OC)c4)c3n2)cc1	-0.3%
O=C(Nc1nc(-c2ccc(Cl)s2)cs1)c1cccs1	25.1µM*
COc1ccc(C2Nc3ccccc3C(=O)N2Cc2ccco2)cc1COc1ccc(NC(C)=O)cc1 (stereo not drawn)	31.6µM*
CCOC(=O)C(N)CSC1CC(=O)N(c2ccc(C(=O)OC)cc2)C1=O (stereo not drawn)	-9.2%
C#CCCCO/N=C1/C[C@@H](O)[C@@H](O)[C@@H]2[C@@H]3C(=O)N(C(C)(C)C)C(=O)[C@H]3CC[C@H]12	3.9%[11.4 µM]
CC1(C)C(C#N)=C(N)OC2=C1C(=O)CCC2	6.0%
CCOC(=O)c1nnn(-c2nonc2N)c1CNc1ccccc1	-0.5%
N#Cc1cccc(NC(=O)N2CCC3(CC2)CCN(C(=O)c2cnccn2)CC3)c1	4.4%
O=C(c1csnn1)N1CCC2(CCCN(Cc3cc(C(F)(F)F)cc(C(F)(F)F)c3)C2)CC1	-4.7%
Cc1cc(C)nc(Nc2n[nH]c(COc3ccc(Cl)cc3)n2)n1	6.5%
CC(=O)Oc1cc2c(c(C)c1OC(C)=O)CC=C1[C@]3(C)CC[C@]4(C)CC[C@@](C)(C(=O)O)CC4[C@]3(C)CC[C@]12C (stereo partly drawn)	?
O=S(=O)(c1ccc(S(=O)(=O)n2cnc3ccccc32)cc1)N1CCCCCC1	3.2%
CCCc1[nH]nc2c1C(c1ccc(OC)cc1OC)C(C#N)=C(N)O2 (stereo not drawn)	-2.9%
CCCN1Cc2cccc(C(=O)Nc3ccc(N4CCN(CC)CC4)cc3)c2C1=O	6.1%
C(=N\c1nc2ccccc2n1CCN1CCOCC1)/c1cccs1	-23.4%
O=C(c1cc2c(s1)CCCC2)N1CCN(C(=O)C2CCCO2)CC1 (stereo not drawn)	-0.3%
O=c1c2ccccc2sc2nc(C3CCCCC3)n(Cc3ccco3)c(=O)c12	?
CC(C)(C)c1cc(CN(CCO)CCO)cc(C(C)(C)C)c1O	4.5%
COc1ccccc1N(C)S(=O)(=O)c1ccc(C(=O)OCC(=O)NCc2ccco2)cc1	-17.2%
CNC(=O)Cn1ncc2c(C)n(Cc3ccc(C)cc3)c(C)c2c1=O	7.0%
CCOC(=O)N1CCN(Cc2nc3c(c(=O)[nH]c(=O)n3C)n2Cc2ccccc2C)CC1	0.6%
COc1ccc(OC)c(Nc2cc(C)nc3ccccc23)c1	-1.0%
COc1ccc2c(CC(=O)Nc3nnc(C4CC4)s3)coc2c1	25.1µM*
CCN(CC)S(=O)(=O)c1ccc(NC(=O)c2ccc(NS(C)(=O)=O)cc2)cc1	-14.4%
COc1ccc(N(CC(=O)O)S(=O)(=O)c2ccc(OC)c(OC)c2)cc1	1.0%
CCN1C(=O)/C(=C\N2CCCCCC2)SC1=S	-6.3%
CCOC(=O)C1CCN(CC(=O)Nc2c(C(=O)OC)[nH]c3ccccc23)CC1	?
COCCn1c(SCC(=O)Nc2nnc(C)s2)nnc1-c1c[nH]c2ccccc12	7.1%
COc1cc2c(=O)n(-c3ccc(C)cc3)c(=O)n(CC(=O)c3ccc4c(c3)OCO4)c2cc1OC	0.0%
COc1ccc(C)cc1NC(=O)C1CC(=O)N(Cc2ccco2)C1 (stereo not drawn)	-5.3%
CCS(=O)(=O)CCSc1nc2ccccc2o1	2.1%
O=C(Nc1nc(-c2ccncc2)cs1)c1ccco1	?
CCOc1ccc(C(=O)Nc2cc(C)on2)cc1	5.7%
O=c1oc(-c2cc3ccccc3o2)nc2sc3c(c12)CCCC3	12.9%
O=C(Nc1nc2ccc(S(=O)(=O)N3CCCCC3)cc2s1)c1ccncc1	-23.2%
CCOC(=O)C(C)Sc1nc(N)c(NC(=O)c2ccc(OC)c(OC)c2)c(=O)[nH]1 (stereo not drawn)	-5.7%
CCOC(=O)c1c(C)[nH]c(C(=O)OCC(=O)N2CCc3ccccc32)c1C	1.0%
COc1nc(C)ccc1-c1noc(-c2ccncc2)n1	-4.5%
O=C(CN1CCc2ccccc2C1)Nc1ccccc1N1CCCCCC1	5.7%
CN(C1CCCCC1)S(=O)(=O)c1ccc2c(c1)c(=O)c(C(=O)NCCN1CCCC1)cn2C	1.3%
Cc1ccc(C2C(=O)N(C3CCC(C)CC3)CC(=O)N2C2CC2)cc1 (stereo not drawn)	4.1%
Cc1nc2ccc(NC3=NCCCCC3)cc2s1	?
CC1(C)Oc2ccc(C(=O)N3CCc4ccccc43)cc2N(CC(=O)N2CCCC2)C1=O	5.9%
CCN(CC)S(=O)(=O)c1cccc(-c2nnc(SC(C)C#N)n2Cc2ccccc2)c1 (stereo not drawn)	2.4%
COCc1nc(-c2ccc(-c3ccc(OC)cc3)nc2OC)no1	25.1µM*
O=C(CN1C(=O)c2ccccc2C1=O)N1CCN(c2ccccc2)CC1	6.4%
C(=N\n1cnnc1)/c1ccc(N2CCOCC2)s1	-12.2%
CCOc1ccc(-n2c(Cc3cc(=O)[nH]c(=O)[nH]3)nnc2SC(C)C)cc1	-3.2%
CCOC(=O)CCC(=O)NCc1ccc2[nH]c(C)cc2c1	-3.0%
O=S(=O)(Nc1nnc(-c2ccccc2)s1)c1ccc(Cl)cc1	-15.9%
The list continues.
SMILES	HSD17B inhib
COc1cc(C(=O)Nc2cnc(NC(=O)C(C)C)cc2C)cc(OC)c1OC	7.7%
Cc1c(Cc2ccccc2)c(=O)oc2c(C)c(OCc3nn[nH]n3)ccc12	31.6µM*
CC(CN(C)Cc1ccccc1)OC(=O)C1COc2ccccc2O1 (stereo not drawn)	-15.0%
O=C(CSc1n[nH]c(-c2ccccc2Br)n1)NC(=O)NCc1ccco1	-1.6%
Cc1nnc(SCC(=O)NCc2ccc3c(c2)OCO3)s1	7.2%
CC(C)c1ccc(NC(=O)CCNS(=O)(=O)c2cccc3nonc23)cc1	-9.2%
CC(C)C(NC(=O)C1CCCCC1)C(=O)Nc1ccc2c(c1)OCCO2 (stereo not drawn)	-0.6%
CC1=C(C(=O)OCc2ccccc2)C(c2cccnc2)n2ncnc2N1 (stereo not drawn)	-0.3%
COC(=O)NC(CC(C)=O)c1cccc(C)c1 (stereo not drawn)	-8.2%[11.4 µM]
O=S(=O)(c1ccc(Cl)cc1Br)N1CCCCC1	-11.1%
Cn1c(=O)c2c(nc(SCC(=O)Nc3ccccc3N3CCCCC3)n2C)n(C)c1=O	8.2%
O=C(CN1CCCC1)N1c2ccccc2Sc2ccccc21	-4.0%
Cc1ccc(OCCC(=O)Nc2c(C)n(C)n(-c3ccccc3)c2=O)cc1	5.4%
CCCc1cc(=O)oc2cc(C)cc(OCc3nn[nH]n3)c12	31.6µM*
CC1(C)SC2c3ccccc3C(=O)N2[C@@H]1C(=O)NCCCN1CCOCC1 (stereo partly drawn)	3.3%
CC1=NC(Nc2nc(C)c3ccccc3n2)=NC(C)(C)C1	11.1%
Nc1nc(=O)n(C2OC(CO)C(O)C2O)cc1Cl (stereo not drawn)	1.2%
CCn1c(SCC(=O)Nc2nonc2C)nnc1-c1ccoc1C	6.0%
CCN(CC)c1ccc(C2C3CCCCC3(O)CCN2CC(=O)N2CCCCC2)cc1 (stereo not drawn)	-3.2%
CCOc1ccccc1OCCCC(=O)N1CCN(S(=O)(=O)c2ccc(C)cc2)CC1	-3.4%

Part of the list above in order of number of heavy atoms, smallest number first.
SMILES	HSD17B inhib
O=S(=O)(c1ccc(Cl)cc1Br)N1CCCCC1	-11.1%
Cc1nnc(SCC(=O)NCc2ccc3c(c2)OCO3)s1	7.2%
O=C(CSc1n[nH]c(-c2ccccc2Br)n1)NC(=O)NCc1ccco1	-1.6%
Cc1ccc(OCCC(=O)Nc2c(C)n(C)n(-c3ccccc3)c2=O)cc1	5.4%
COc1cc(C(=O)Nc2cnc(NC(=O)C(C)C)cc2C)cc(OC)c1OC	7.7%

Back to the main list with the four entries that preceded the break.
SMILES	HSD17B inhib
Nc1nc(=O)n(C2OC(CO)C(O)C2O)cc1Cl (stereo not drawn)	1.2%
CCn1c(SCC(=O)Nc2nonc2C)nnc1-c1ccoc1C	6.0%
CCN(CC)c1ccc(C2C3CCCCC3(O)CCN2CC(=O)N2CCCCC2)cc1 (stereo not drawn)	-3.2%
CCOc1ccccc1OCCCC(=O)N1CCN(S(=O)(=O)c2ccc(C)cc2)CC1	-3.4%
Cc1cc(Nc2nc3ccccc3[nH]c2=O)n(-c2ccccc2)n1	?
Cc1ccc(NC(=O)CS(=O)CC(=O)NC(C)CCc2ccco2)cc1Cl (stereo not drawn)	4.7%
Cn1c(=O)c2c(nc(NCCNc3nc4c(c(=O)n(C)c(=O)n4C)n3C)n2C)n(C)c1=O	-0.9%[11.4 µM]
COc1ccc(OC)c(-c2cc(C(=O)N3CCCc4ccccc43)no2)c1	-8.4%
COC(=O)c1[nH]c2cc(C)ccc2c1NC(=O)CN1CCN(c2ccccc2OC)CC1	-24.7%
O=C(Nc1ccccc1)N1CCN(c2nc3ccccc3s2)CC1	25.1µM*
Cc1c(C(=O)NCc2cccnc2)oc2c1C(=O)CC(C)(C)C2	-3.1%
Cc1ccc(Cl)cc1N(CC(=O)NC1CCCCC1)S(C)(=O)=O	5.7%
COc1ccc(Oc2ncc3nc(-c4ccc(F)cc4)c(=O)n(CCC#N)c3n2)cc1	20µM*
CCC(=O)N1CCc2cc(S(=O)(=O)CCC(=O)NCc3ccc4c(c3)OCO4)ccc21	3.6%
Cc1cc(C)c(NC(=O)CN2CCN3CCCC3C2)c(C)c1 (stereo not drawn)	-0.1%
O=C(c1cnn2c(C(F)F)cc(C3CC3)nc12)N1CCc2ccccc2C1	3.1%
O=C(COc1ccc(Cl)cc1Cl)NCc1ccco1	-5.9%
c1ccc(C2(c3ccccc3)OCC(Cn3cncn3)O2)cc1 (stereo not drawn)	5.0%
CC(=O)c1cccc(NC(=O)c2cc(C)no2)c1	1.4%
C=CCn1c(N)c(-c2nc3ccccc3n2C)sc1=S	?
C[C@H](NCCc1ccc(O)cc1)[C@@H](O)c1ccc(O)cc1	1.0%[25.6 µM]
Cc1ccc(OCC(=O)Nc2cccc(C)n2)c(C)c1	-3.7%
Cc1cc(OCC(=O)NCCCN(C)C)cc(C)c1Br	5.3%
Cc1ccc(S(=O)(=O)/N=C/c2ccco2)cc1	-4.3%
Nc1c(N2CCN(c3ccccc3)CC2)c2ccccc2oc1=O	-8.9%
Cc1cc(C)n(-c2nc(NCc3cccnc3)c3c4c(sc3n2)COC(C)(C)C4)n1	31.6µM*
CCC1CCc2c(sc(NC(=O)c3ccoc3C)c2C(N)=O)C1 (stereo not drawn)	?
COc1ccc(NC(=O)CSc2nc(NS(=O)(=O)c3ccccc3)cc(=O)[nH]2)cc1	?
CN(CC(=O)Nc1ccccc1Cl)C(=O)COC(=O)CNC(=O)c1ccc(Br)o1	1.2%
Nc1ccc(S(=O)(=O)Nc2cnc3ccccc3n2)cc1	7.9%[11.4 µM]
CCC(C)(C)NC(=O)C(c1ccccc1F)N(Cc1ccco1)C(=O)Cn1nnc2ccccc21 (stereo not drawn)	4.1%
COc1ccccc1-n1c2c(cc(C(=O)N3CCC(C)CC3)c1=O)C(=O)CC(C)(C)C2	3.2%
C[C@H](CC(=O)O)C(C(=O)O)C(=O)O	0.2%[11.4 µM]
COc1ccc(-c2nc3c(c4c2CC(C)OC4)CN(CCC(C)C)CC3)cc1 (stereo not drawn)	-16.8%[11.4 µM]
O=C(CN1CCN(c2ncccn2)CC1)Nc1ccccc1-n1cccc1	1.8%
CCOc1cc(C(=O)Nc2cc(C)ccn2)cc(OCC)c1OCC	1.8%
O=c1n(Cc2ccccc2)c2cc(Cl)cnc2n1Cc1ccccc1	31.6µM*
CC(C)N(CCNC(=O)c1cn(C)c2ccc(S(=O)(=O)N(C)C)cc2c1=O)Cc1ccccc1	-7.3%
CCN1C(=O)C2C(c3ccc(O)c(OC)c3)NC(C)(C(=O)OC)C2C1=O (stereo not drawn)	-2.1%
N#CCCN1CCN(S(=O)(=O)c2ccc(S(=O)(=O)NC3CCCC3)cc2)CC1	-3.7%
NC1(C(=O)O)C[C@@H](C(=O)O)[C@H](C(=O)O)C1	4.5%&-11.9%
CC(=O)OCC1OC(C#CCC2CCCCC2)C=CC1OC(C)=O (stereo not drawn)	-7.0%[11.4 µM]
CCOc1ccc2nc(N3CCCCCC3)sc2c1	-9.0%
Cc1c(N2C(=O)c3ccccc3C2=O)c(=O)n(-c2ccccc2)n1C	14.4%
CN(C)C(=O)c1ccc(NC(=O)c2cccnc2)cc1	-7.2%
